# Assay outcomes: PubChem BioAssay, National Center for Advancing Translational Sciences (NCATS)
# Sfp PPTase inh – inhibitors of Bacillus subtilis Sfp phosphopantetheinyl transferase; Q9F4F7; Biochemical Sfp PPTase activity, qHTS; Potency, µM, for the others: max response, negative = inhibition, usual class: inhibitors; 310,000 tested, 3.5% active; AID 1490; active = well fitted inhibition curve with a large enough effect; inconclusive = small, poorly fitted or top-dose-only effect, or another doubt; inactive = no such curve, though single readings can be large or run the other way;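 also: the enzyme is Sfp with the accession as filed and its product quenches rhodamine fluorescence; potency is read from the fitted curve at half-maximal effect; 0% = enzyme reaction without inhibitor and -100% = no enzyme wells; top concentration of the series not given in the record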
#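 Buffer: 50 mM Hepes-Na pH 7.6, 10 mM MgCl2, 0.01% Nonidet P-40, 0.01% BSA. Enzyme 15 nM, pre-exposed to compound 15 min; substrates then added and fluorescence change tracked over 30 min.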
# gsp ag – activates gsp, the McCune-Albright syndrome mutation; gsp mutant cells, cAMP HTRF, 30 min; control for the full effect not named in the record; Potency, µM (doses to about 76.9 µM), for inactives: at the highest dose activation (cAMP increase), usual class: activators; 340,000 tested, 0.13% active; AID 624287; active = well fitted activation curve with a large enough effect; inconclusive = small, poorly fitted or top-dose-only effect, or another doubt; inactive = no such curve, though single readings can be large or run the other way; cell line not stated here;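 also: phosphodiesterase inhibitor Ro 20-1724 added with compounds to block cAMP breakdown; potency is read from the fitted curve at half-maximal effect; nearly all actives have a fitted effect of over 60% in size; about a fifth of the inactives were tested at one dose only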
#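 Cells in DMEM/10% FBS with G418 were pretreated with compounds in DMSO plus […] (300 uM stock) for 30 min at 37C. cAMP was measured by HTRF (cAMP-d2 plus anti-cAMP antibody-K) after 30 min at room temperature.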
# Menin-MLL FL inh – menin-MLL binding inhibition, fluorescein peptide; 290,000 tested, under 10 active; Fluorescence polarization, fluorescein-MLL peptide displacement from menin; AID 1766; FP activity change, % at 61.4 µM; inconclusive = falling polarisation curve, or a change in total fluorescence; inactive = total fluorescence flat and polarisation flat or rising; no compound was filed as active; the % refers to the polarisation; negative = inhibition;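 also: % of control where 0% means no effect; inhibitors lower the polarisation; unlabelled MLL peptide was the positive control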
# gsp antagonist – antagonizes gsp, the McCune-Albright syndrome mutation. gsp-mutant cells, cAMP HTRF, 30 min; control for the full effect not named in the record. Potency, µM (doses to about 76.9 µM), for inactives: at the top dose activity change, negative = inhibition, hits mostly inhibitors. 340,000 tested, 0.4% active. AID 624288; active = falling curve of any shape with a large fitted effect; inconclusive = falling curve, mostly with a smaller effect; inactive = flat or rising curve; cell line not stated here;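 also: intracellular cAMP measured with PDE inhibitor Ro 20-1724 present during compound exposure; potency is read from the fitted curve at half-maximal effect; % is scaled to controls: 0 for no effect and ±100 for the full control effect; nearly all actives have a fitted effect of over 65% in size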
#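 Measurement of cellular cAMP by homogeneous time-resolved fluorescence following a 30 min compound exposure at 37C. The PDE inhibitor […] was present throughout; the assay buffer was DPBS with 0.05% BSA and 0.005% Tween 20.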
# ClpP mod – qHTS Assay for Activators of ClpP | purified B. subtilis ClpP, FRET peptide cleavage, 20 min | Potency, µM (top dose mostly 57.5 µM), inactives show at the top dose activity change, negative = active | 340,000 tested, 1.9% active | AID 651965, 2013; active = well fitted falling curve with a large enough effect; inconclusive = small, poorly fitted or top-dose-only effect; inactive = no such curve, though single readings can be large or run the other way; also: potency is read from the fitted curve at half-maximal effect; the source files actives as falling curves though it sought activators and does not explain the sign; nearly all actives have a fitted effect of over 65% in size; many hits overshoot -100%
# Target sequence (P80244 whole entry, looked up): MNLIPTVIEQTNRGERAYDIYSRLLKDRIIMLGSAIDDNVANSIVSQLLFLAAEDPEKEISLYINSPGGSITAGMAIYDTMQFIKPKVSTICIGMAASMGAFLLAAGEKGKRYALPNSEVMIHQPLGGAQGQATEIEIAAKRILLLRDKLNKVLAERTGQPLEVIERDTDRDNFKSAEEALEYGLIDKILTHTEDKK
#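 FRET quenching reversal measured ClpP activation: 10 microg/mL B. subtilis ClpP at pH 8 with the FRET-FV decapeptide, read at 430 nm after 320 nm excitation. The 20-min minus 0-min signal was scaled between DMSO/no-enzyme wells and ADEP (5.8 microM final).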
# TRPML1 inh – human mucolipin-1 channel inhibition | Q9GZU1 | 390,000 tested, 0.02% active | activity change, negative = inhibition, % (test concentration not listed) | TRPML1-inducible cells, Ca2+ dye fluorescence, FDSS; stronger effect = lower value; inhibition of EC80 agonist-evoked calcium signal; in the data active means activity change below about -50%; inconclusive means about -30% to -50%; inactive means above about -30%;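 also: stimulus is agonist 54-4 at its EC80 concentration; % is scaled to controls: 0 for no effect and ±100 for the full control effect; compound concentration not given in the record; the text of the record puts the active cut at -80%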
#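 TRPML1-DL cells, Tet-induced overnight (~16 h, 37 °C) at 1,500 cells/well, were loaded with Ca8 no-wash dye plus quencher for 45-90 min at room temperature. Compounds were pinned during FDSS kinetic reading; agonist 54-4 at EC80 (4 uM final) then added.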
# TRPV1 PAM – enhances activation of the human vanilloid receptor TRPV1 | Q8NER1 | TRPV1-expressing cells, Fluo-8 calcium influx, capsaicin EC20 potentiation; host cell line not named in the record; control for the full effect not named in the record | 320,000 tested, 0.02% active | potentiation, % at 8.33 µM; active means potentiation above 80%; inconclusive means 30% to 80%; inactive means below 30%; also: 0% is about no effect
# Target sequence (Q8NER1 whole entry, looked up): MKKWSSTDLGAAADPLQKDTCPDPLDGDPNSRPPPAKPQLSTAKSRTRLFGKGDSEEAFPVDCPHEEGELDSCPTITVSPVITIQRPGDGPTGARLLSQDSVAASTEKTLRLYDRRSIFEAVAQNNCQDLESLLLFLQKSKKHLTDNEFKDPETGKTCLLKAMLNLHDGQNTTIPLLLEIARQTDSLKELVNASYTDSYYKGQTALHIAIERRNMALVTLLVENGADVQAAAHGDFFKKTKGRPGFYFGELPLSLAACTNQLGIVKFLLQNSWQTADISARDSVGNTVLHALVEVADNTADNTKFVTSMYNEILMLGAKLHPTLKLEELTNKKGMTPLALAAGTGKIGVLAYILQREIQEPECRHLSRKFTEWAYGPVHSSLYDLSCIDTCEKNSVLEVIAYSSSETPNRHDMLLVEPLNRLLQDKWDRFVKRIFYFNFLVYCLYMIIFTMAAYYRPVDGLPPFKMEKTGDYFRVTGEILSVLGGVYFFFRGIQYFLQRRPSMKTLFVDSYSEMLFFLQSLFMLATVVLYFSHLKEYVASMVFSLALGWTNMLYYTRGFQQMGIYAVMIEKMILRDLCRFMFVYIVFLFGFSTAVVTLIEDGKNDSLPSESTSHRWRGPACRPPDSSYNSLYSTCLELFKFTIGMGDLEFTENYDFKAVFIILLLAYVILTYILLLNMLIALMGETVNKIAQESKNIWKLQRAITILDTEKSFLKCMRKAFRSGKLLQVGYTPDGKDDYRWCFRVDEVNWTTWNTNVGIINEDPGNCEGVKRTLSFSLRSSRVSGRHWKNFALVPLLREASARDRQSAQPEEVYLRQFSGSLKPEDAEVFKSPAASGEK
#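 Cells expressing TRPV1 were dye-loaded with Fluo-8 and read kinetically: 10 s baseline, 3 min after compound (agonist portion), then 2 min after EC20 capsaicin (allosteric enhancer portion). Calcium-bound dye fluorescence at 480/520 nm.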
# * = called active by the depositor; ? = inconclusive; / = not tested or not shown; [ ] = dose if it differs, or a comment.
SMILES,Sfp PPTase inh,gsp ag,Menin-MLL FL inh,gsp antagonist,ClpP mod,TRPML1 inh,TRPV1 PAM
COc1ccc(F)cc1CN1CCN(C(=O)CCC(=O)Nc2nnc(C(C)C)s2)CC1,3%,-44%,0.1,-5%,-0.2%,-2,-9
Cc1cccc(C(=O)N/N=C/c2cc(Br)c(Br)o2)c1,-18%,6%[15.4 µM],-2.2,-16%,-4.0%,11,-4
CSc1ccc(-c2nc(CSCC(=O)NC3CC3)c(C)o2)cc1,1%,26%,0.3,-7%,3.7%,-8,-28
COc1cccc(C2C3=C(CCCC3=O)NC3=C2C(=O)c2ccccc23)c1 (stereo not given),15%,/,-1.7,/,/,/,3
CCOc1cc(/C=N/NC(=O)c2cc(-c3cccc(OC)c3)nc3ccccc23)ccc1O,/,-7%,/,?,/,-1,/
FC(F)(F)c1cccc(-c2ccc(-c3csnn3)o2)c1,-11%,-24%,1.6,-8%,1.7%,23,-5
O=C(Cc1cccc([N+](=O)[O-])c1)Nc1ccc(C(=O)N2CCOCC2)cc1,/,-6%,/,-2%,-0.7%,-14,/
O=C(NC(=S)Nc1ccccc1N1CCOCC1)c1ccc(Br)cc1,18%,0%,0.5,-4%,-3.3%,-3,-7
C[C@H]1CN([C@@H](C)CO)C(=O)CCCn2nncc2CO[C@@H]1CN(C)S(=O)(=O)c1ccc(Oc2ccccc2)nc1,/,-20%,/,/,-1.4%,-3,/
O=C(CSc1ncnc2c1oc1ccccc12)Nc1nc2ccccc2s1,20%,?,-2.7,10%,7.1%,-8,6
CCCc1nnc(NC(=O)CCC(=O)N2CCN(C3c4ccccc4-c4ccccc43)CC2)s1,-13%,0%,1.6,11%,2.1%,6,-11
O=c1[nH]c(CSc2ccccn2)nc2c1cnn2-c1ccccc1,-13%,-33%[inhibitor],12,5%,0.2%,8,3
CCC(=O)N1CCc2cc(Br)cc(S(=O)(=O)N3CCCCCC3)c21,5%,-35%[inhibitor],0.2,?,-0.8%,15,0
CCC(C)NC(=O)C1CCN(S(=O)(=O)CC)CC1 (stereo not given),-4%,-25%,1.0,7%,0.8%,5,27
CN(C)CCN[C@H]1CCC2C3CC=C4C[C@@H](O)CC[C@]4(C)C3CC[C@@]21C (stereo not given in full),/,-4%[15.4 µM],/,-4%,-1.9%,18,/

# Retrieved by compound from above:
SMILES,Sfp PPTase inh,gsp ag,Menin-MLL FL inh,gsp antagonist,ClpP mod,TRPML1 inh,TRPV1 PAM
CCOc1cc(/C=N/NC(=O)c2cc(-c3cccc(OC)c3)nc3ccccc23)ccc1O,/,-7%,/,?,/,-1,/
C[C@H]1CN([C@@H](C)CO)C(=O)CCCn2nncc2CO[C@@H]1CN(C)S(=O)(=O)c1ccc(Oc2ccccc2)nc1,/,-20%,/,/,-1.4%,-3,/
CN(C)CCN[C@H]1CCC2C3CC=C4C[C@@H](O)CC[C@]4(C)C3CC[C@@]21C (stereo not given in full),/,-4%[15.4 µM],/,-4%,-1.9%,18,/

# Full records, quoted from the list. Order of values: Sfp PPTase inh	gsp ag	Menin-MLL FL inh	gsp antagonist	ClpP mod	TRPML1 inh	TRPV1 PAM
# O=C(NC(=S)Nc1ccccc1N1CCOCC1)c1ccc(Br)cc1 reads 18%	0%	0.5	-4%	-3.3%	-3	-7
# C[C@H]1CN([C@@H](C)CO)C(=O)CCCn2nncc2CO[C@@H]1CN(C)S(=O)(=O)c1ccc(Oc2ccccc2)nc1 reads /	-20%	/	/	-1.4%	-3	/
# FC(F)(F)c1cccc(-c2ccc(-c3csnn3)o2)c1 reads -11%	-24%	1.6	-8%	1.7%	23	-5
# O=C(CSc1ncnc2c1oc1ccccc12)Nc1nc2ccccc2s1 reads 20%	?	-2.7	10%	7.1%	-8	6
# CCOc1cc(/C=N/NC(=O)c2cc(-c3cccc(OC)c3)nc3ccccc23)ccc1O reads /	-7%	/	?	/	-1	/

# Following part.
SMILES,Sfp PPTase inh,gsp ag,Menin-MLL FL inh,gsp antagonist,ClpP mod,TRPML1 inh,TRPV1 PAM
O=C(NCCCCNC(=O)c1ccc(F)cc1)c1ccc(F)cc1,-3%,13%,-0.2,-5%,0.6%,0,2
O=C(NN=Cc1ccccc1O)NN=Cc1ccccc1O,/,-10%,/,2%,/,-11,/
O=C1C=C(c2ccc(Oc3ccccc3)cc2)C[C@@H](c2ccc(F)cc2)C1,/,/,/,8%,-1.5%,23,-2
CCOc1ncccc1C(=O)OCC(=O)NCCCc1ccccc1,/,-24%,/,4%,-2.2%,10,/
COc1ccc2c(c1)C(C)CC(C)(C)N2C(=O)CSc1ncn[nH]1 (stereo not given),24%,-3%,-0.3,5%,0.4%,2,/
Cc1cccc(N(C(=O)c2snc(C(N)=O)c2N)C(C(=O)NCC2CCCO2)c2c[nH]c3ccccc23)c1 (stereo not given),17%,-13%[15.4 µM],/,-20%,/,4,5
CCOc1ccc(/C=N/NC(=O)c2nnn(-c3nonc3N)c2COc2ccc(F)cc2)cc1,16%,-6%[15.4 µM],4.4,5%,0.7%,-13,-17
Cc1c(NC(=O)CSc2nnnn2-c2ccc(C(=O)O)cc2)c(=O)n(-c2ccccc2)n1C,9%,23%[15.4 µM],-0.6,3%,/,-10,-4
CCOc1ccc(CN2CCN(CCCc3ccccc3)C(CCO)C2)cc1 (stereo not given),7%,-3%,-2.7,10%,-1.8%,12,-2
CCOC(=O)C1=C(CSc2nc3c(cc2C#N)CN(C)CC3)OC(N)=C(C#N)C1c1ccc(F)cc1 (stereo not given),56µM*,?,?,-1%,-1.0%,19,13
CCSc1nnc(CNc2ccc(F)cc2)n1CC1CCCO1 (stereo not given),10%,-8%,7.0,10%,3.1%,10,-2
COc1ccc(C(=O)NNC(=S)NC2CCCCC2)cc1OC,12%,-53%[inhibitor],0.5,10%,57%,-1,1
CCCOC(=O)CN1C(=O)c2ccccc2C1=O,-2%,-20%,0.5,2%,0.8%,2,8
COc1ccc(C(=O)N/C(=C\c2ccccc2)C(=O)NC(CC(C)C)C(=O)O)cc1 (stereo not given),14%,-1%[15.4 µM],0.1,4%,/,4,-1
O=C(CSc1ncnc2c1oc1ccccc12)Nc1cccc(F)c1,16%,?,4.2,28%,-1.1%,-15,-17
CC(C)[C@H](NC(=O)c1ccccc1F)C(=O)Nc1ccc2c(c1)OCO2,/,23%,/,-1%,-2.8%,11,15
CCCCc1ccc(NC(=O)NCc2ccccn2)cc1,16%,-22%,1.1,-1%,-0.2%,14,-3
N#CC(C(=O)OC1CCCCC1)c1nc2ccccc2nc1N1CCCCC1 (stereo not given),11%,/,-1.1,/,/,/,-20
COc1ccc(C(CNC(=O)c2cccc(S(=O)(=O)N3CCOCC3)c2)N2CCOCC2)cc1 (stereo not given),/,?,/,-14%,0.7%,6,/
COc1ccc(-n2c(=S)[nH]c(=O)c3cccnc32)cc1,?,21%,2.9,-2%,/,48,27
Cc1ccc2nc(SCC(=O)NCCc3ccccc3)nc(=O)n2c1,/,?,/,8%,28µM*,9,19
CSCCC(NC(=O)COc1ccccc1)C(=O)N(C)Cc1ccc(SC)cc1 (stereo not given),/,16%,/,-28%,1.6%,4,-8
CN1CC(C(=O)Nc2ccc(F)c(Cl)c2)CC1=O (stereo not given),5%,-2%[15.4 µM],-5.8,10%,0.5%,12,-2
CS(=O)(=O)Nc1ccc(C(=O)N2CC(=O)Nc3ccccc32)cc1,15%,-2%[15.4 µM],-0.3,-10%,-2.0%,-11,-3
Cc1ccc(NC2=C(Cl)C(=O)OC2NC(=O)c2ccccc2)cc1 (stereo not given),3%,-36%,2.7,-3%,-1.5%,-5,2
O=c1c(-c2ccccc2Cl)c[nH]n1-c1ccccc1,29%,15%[15.4 µM],1.7,-2%,/,-2,10
Cc1csc(NC(=O)c2cc([N+](=O)[O-])cc([N+](=O)[O-])c2)n1,-18%,6%,1.9,-4%,?,-16,11
COC(=O)N/N=C(\C)c1cccs1,19%,-24%,4.1,-3%,-0.5%,1,-2
CCCn1c(SCC(N)=O)nc2c(c1=O)C1(CCCC1)Cc1ccccc1-2,6%,13%[15.4 µM],1.2,-23%,-1.2%,11,0
CC(C)c1nnc(SCC(=O)NC2CCCCC2)n1C,10%,?,0.5,13%,/,-3,2
Cn1cnc([N+](=O)[O-])c1Oc1ccc2ccccc2c1,-14%,13%,1.4,2%,52%,13,-4
COc1ccc(S(=O)(=O)NCc2ccncc2)cc1NC(=O)c1ccccc1,/,2%,/,-2%,-29%,26,8
COc1cc(C(=O)OCCNC(=O)c2ccccc2)cc(OC)c1OC,21%,-4%,3.6,5%,/,-3,13
Cc1nc2c(Cl)cccc2c2c1CC(CBr)O2 (stereo not given),6%,-1%,-1.4,-9%,-1.7%,-1,24
c1coc(C2Nc3cccc4cccc(c34)N2)c1,3.2µM*,/,-18,/,/,/,8
COc1ccc(C(=O)NCc2csc(C)n2)cc1OC1CCN(C(C)=O)CC1,/,?,/,7%,-2.8%,-8,/
O=C(CCSc1ccc(Cl)cc1)NCc1ccncc1,-13%,24%,1.3,3%,-1.1%,-4,-24
CCn1c(COc2cccc3cccnc23)nnc1SC(F)F,14%,?,0.0,10%,/,-17,-22
Oc1ccccc1-c1cc(-c2ccccc2Cl)[nH]n1,2%,-4%,0.2,-4%,2.5%,8,-5

# Hits appear at their usual frequency; overall some 4.9% were active at least once.
